GIV Gai3 FP: GIV-Galpha-i interaction inhibition. P08753. Galpha-i3/FITC-GIV peptide fluorescence polarization, 90 min; active compounds read low; scaled: aluminum fluoride 0%, vehicle 100%. percent of control (FP), % (test concentration not listed). AID 1224905. 210,000 tested, 0.42% active;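 active = replicate mean at 85% of control or lower, very high polarization wells dropped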;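 also: lower values mean more displacement of the GIV peptide from Galpha-i3; wells of about 15 µL received 100 nL stock; the first replicate is given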
Target sequence (P08753 whole entry, looked up): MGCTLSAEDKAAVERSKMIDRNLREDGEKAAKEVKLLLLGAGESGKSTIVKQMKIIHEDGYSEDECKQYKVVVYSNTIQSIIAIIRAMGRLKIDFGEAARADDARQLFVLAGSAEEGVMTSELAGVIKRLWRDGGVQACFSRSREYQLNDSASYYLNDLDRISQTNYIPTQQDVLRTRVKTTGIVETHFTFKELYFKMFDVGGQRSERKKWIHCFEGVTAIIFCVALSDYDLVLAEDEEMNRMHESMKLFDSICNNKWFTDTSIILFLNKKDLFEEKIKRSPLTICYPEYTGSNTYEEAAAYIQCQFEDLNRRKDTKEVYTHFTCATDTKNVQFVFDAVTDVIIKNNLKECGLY
The depositor's hits bear a star; & = joins results of further samples. Only part of the results is shown; rates above refer to the full screens.

smiles | GIV Gai3 FP
Cc1cc(=O)oc2c1ccc1occ(Nc3ccc(Cl)c(Cl)c3)c12 | 108
CCCCNC(=O)c1cccn(-c2ccc(NC(=O)c3ccccc3)cc2)c1=O | 106
COC(=O)c1c(-c2ccc(Cl)cc2)noc1NCc1ccc2c(c1)OCO2 | 106
Cc1nn(-c2ccc3nnc(C)n3n2)c2c1C(c1ccccc1Cl)CC(=O)N2 (configuration not stated) | 98
CC1CCN(c2ccc(-c3noc(CN4CCSCC4)n3)cn2)CC1 | 99
Nc1cc(Nc2ccccc2)c2nonc2c1[N+](=O)[O-] | 101
COc1ccc(-n2ccc(=O)c(-c3nc(-c4ccc5c(c4)OCO5)no3)n2)cc1 | 100
COc1ccc(/C=C2\C=C(c3ccccc3)N(c3ccccc3Cl)C2=O)cc1Br | 108
CCOc1ccc(N2C(=O)/C(=C\C(C)=C\c3ccccc3)S(=O)(=O)C2c2cccc([N+](=O)[O-])c2)cc1 (configuration not stated) | 107
CCC(Sc1nc2ccccc2c(=O)n1CC1CCC(C(=O)NCc2ccco2)CC1)C(=O)NCc1ccco1 (configuration not stated) | 109
Cc1cccc(Cn2cc(C(=O)Nc3ccccc3C(N)=O)ccc2=O)c1 | 101
CCOC(=O)C1=C(C)NC2=C(C(=O)C(C(=O)OCC)C(c3ccc(OC)cc3)C2)C1c1ccc(OC)cc1 (configuration not stated) | 103
Cc1nn(-c2ccccc2)c2ccn(CC(=O)NCc3ccc4c(c3)OCO4)c(=O)c12 | 97
COc1ccc(C2CS(=O)(=O)CS(=O)(=O)C2)cc1 | 108
Cc1cc(Cl)ccc1N1C(=O)C(N2C(=O)c3ccccc3C2=O)C1c1ccc(F)cc1 (configuration not stated) | 114
CCOc1ccc(S(=O)(=O)N2CCN(c3ccc(C(C)=O)cc3)CC2)c2cccnc12 | 108
CC1=C(C)C/S(=N\S(=O)(=O)c2ccccc2)N(S(=O)(=O)c2ccccc2)C1 (configuration not stated) | 113
Cc1nc(-c2ccc(Cl)c(S(=O)(=O)N3CCCC(C(=O)NC4CCCC4)C3)c2)no1 (configuration not stated) | 98
O=C(NC1CCCC1)N1CCCN(c2nc3cc(Br)ccc3n3cccc23)CC1 | 93
CSc1nc2ccc(NS(=O)(=O)c3ccc(Br)s3)cc2s1 | 102
Cc1nn(-c2ccc3nnc(C)n3n2)c2c1C(c1ccc(Br)cc1)CC(=O)N2 (configuration not stated) | 97
CCC(C)NC(=O)C1CCN(c2ncc(-c3cccc(C)c3)cn2)CC1 (configuration not stated) | 100
COc1cc(NC(=O)c2sc3ncnc(N4CCCCC4C)c3c2C)cc(OC)c1OC (configuration not stated) | 104
CCCCCCCCCCCC(=O)NC1C(OC(C)=O)OC(COC(C)=O)C(OC(C)=O)C1OC(C)=O (configuration not stated) | 100
Cc1ccc(N2CCN(C(=O)c3sc4ncn(CC(=O)Nc5ccc(C)c(Cl)c5)c(=O)c4c3C)CC2C)cc1 (configuration not stated) | 107

Seven entries out of the list above, sorted by the number in GIV Gai3 FP, rising.
smiles | GIV Gai3 FP
O=C(NC1CCCC1)N1CCCN(c2nc3cc(Br)ccc3n3cccc23)CC1 | 93
Cc1nn(-c2ccc3nnc(C)n3n2)c2c1C(c1ccccc1Cl)CC(=O)N2 (configuration not stated) | 98
CC1CCN(c2ccc(-c3noc(CN4CCSCC4)n3)cn2)CC1 | 99
Nc1cc(Nc2ccccc2)c2nonc2c1[N+](=O)[O-] | 101
Cc1ccc(N2CCN(C(=O)c3sc4ncn(CC(=O)Nc5ccc(C)c(Cl)c5)c(=O)c4c3C)CC2C)cc1 (configuration not stated) | 107
Cc1cc(=O)oc2c1ccc1occ(Nc3ccc(Cl)c(Cl)c3)c12 | 108
CCC(Sc1nc2ccccc2c(=O)n1CC1CCC(C(=O)NCc2ccco2)CC1)C(=O)NCc1ccco1 (configuration not stated) | 109

Looked up above:
`CC1CCN(c2ccc(-c3noc(CN4CCSCC4)n3)cn2)CC1` in GIV Gai3 FP is listed with 99
`Cc1nn(-c2ccc3nnc(C)n3n2)c2c1C(c1ccc(Br)cc1)CC(=O)N2` (configuration not stated) in GIV Gai3 FP is listed with 97

Next part
smiles | GIV Gai3 FP
CCCCN1C(=O)C(C)(C(=O)N2CCN(CC)CC2)Oc2cccnc21 (configuration not stated) | 101
Cc1ccc(S(=O)(=O)c2cnc(N3CCN(c4cccc(C)c4)CC3)nc2N)cc1 | 108
Cn1c(=O)n(Cc2ccccc2F)c(=O)c2c1ncn2Cc1ccccc1 | 103
CCOC(=O)C1CCN(C(=O)CNC(=O)Cn2cnc3ccccc3c2=O)CC1 | 97
COc1cccc(Oc2ccnc(-c3cccc(C(=O)NCc4ccc(Br)cc4)c3)n2)c1 | 104
CCCS(=O)(=O)c1nc2ccc(NS(=O)(=O)Cc3ccccc3)cc2s1 | 102
CSc1ccc(C2CC(c3cccs3)Nc3ncnn32)cc1 (configuration not stated) | 106
CC1=NN(c2ccc(C)c(C)c2)C(=O)C1C(c1ccc([N+](=O)[O-])cc1)C1C(=O)N(c2ccc(C)c(C)c2)N=C1C (configuration not stated) | 104
O=[N+]([O-])c1cccc(S(=O)(=O)n2c(SCc3ccc(Cl)cc3)nc3ccccc32)c1 | 101
CCS(=O)(=O)N1CCCC(C(=O)NCCN2CCC(Cc3ccccc3)CC2)C1 (configuration not stated) | 105
COC(=O)C1(O)/C(=C(\O)c2ccc([N+](=O)[O-])cc2)C(=O)C(=O)N1c1ccccc1 (configuration not stated) | 102
CCC(C)c1ccc(OCCOc2c(Br)cc(C=C3C(=O)NC(=O)NC3=O)cc2OC)cc1 (configuration not stated) | 102
O=S(=O)(c1ccc(Br)cc1)n1c(SCc2cccnc2)nc2ccccc21 | 103
O=S(=O)(c1cn(Cc2noc(-c3ccccc3)n2)cn1)N1CCCCC1 | 106
O=C1C2C(c3ccc(Br)cc3)OC3(C(=O)c4ccccc4C3=O)C2C(=O)N1c1ccc(F)cc1 (configuration not stated) | 102
CCSc1nnc(-c2nn(C)c3c2CN(S(=O)(=O)c2ccccc2Cl)CC3)n1CC | 104
CCn1c(C)nnc1SCc1nc(-c2ccc(OC)c(OC)c2)oc1C | 101
CN(C)c1ccc(-c2nc3sc4ccccc4n3c2NC(C)(C)C)cc1 | 99
CCOc1ccc(C2C(N3C(=O)c4ccccc4C3=O)C(=O)N2c2ccc(C)c(Cl)c2)cc1 (configuration not stated) | 106
O=C(Nc1cccc(Cl)c1)c1nnc(C2CCCN(C(=O)Nc3ccccc3Cl)C2)s1 (configuration not stated) | 104
Cc1ccc(C2CC(c3cccs3)=NN2C(=O)CSc2nnc(CNC(=O)c3cccc([N+](=O)[O-])c3C)n2C)cc1 (configuration not stated) | 118
O=C(CC1CCCC1)N1CCN(c2ncnc3c2nnn3-c2ccc(F)cc2)CC1 | 94
COc1cc(C2CC(=O)Nc3c2c(C)nn3-c2nncc(-c3ccc(C)cc3)n2)ccc1OC(C)C (configuration not stated) | 97
CCCc1oc2c(cc(NS(=O)(=O)c3ccc(OC)cc3)c3ccccc32)c1C(=O)OCC | 103
CCN(CC)c1ccc(/C=C2/C(C)=C(C#N)c3nc(N)c(C#N)c(C)c32)cc1 | 105
Cc1ccc(Cl)cc1NC(=O)C1CCCN1S(=O)(=O)c1cc2c(cc1C)NC(=O)CO2 (configuration not stated) | 99
CCc1ccc(NS(=O)(=O)c2c(C)sc(C)c2-c2cc(C(F)(F)F)on2)cc1 | 101
Cc1ccccc1NS(=O)(=O)c1cc(S(=O)(=O)Nc2ccccc2C)c2cccc3c2c1NC3=O | 103
COc1ccc(OC)c(C2C(N3C(=O)c4c(Cl)c(Cl)c(Cl)c(Cl)c4C3=O)C(=O)N2c2cc(Cl)ccc2C)c1 (configuration not stated) | 110
COCCNc1nc(SCc2ccccc2F)nc2ccccc12 | 104
CCCCC(C(=O)Nc1ccc(OC)cc1)N1C(=O)C2C3c4ccccc4C(c4ccccc43)C2C1=O (configuration not stated) | 117
COc1cc(/C=C2/N=C(c3ccc(-c4ccccc4)cc3)OC2=O)cc(OC)c1OC | 121
CC(C)NC(=O)C1CCCN(c2ncnc3c2oc2ccccc23)C1 (configuration not stated) | 102
CC1=C(C(=O)OC(C)C)C(c2cc(Br)ccc2F)C2=C(CC(c3cccs3)CC2=O)N1 (configuration not stated) | 108
CCc1ccccc1N1C(=O)C2C3c4ccccc4C(CO)(c4ccccc43)C2C1=O (configuration not stated) | 106
COc1ccc(C(=O)Nn2c(SCC(=O)c3ccc(Cl)cc3)nc3ccccc3c2=O)cc1 | 106
COc1ccc(OC)c(NC(=O)c2cc3cc(OC)ccc3oc2=Nc2ccc(C(=O)O)cc2)c1 | 117
CCOC(=O)C1=NNC2C(=O)N(c3ccccc3)C(=O)C12 (configuration not stated) | 104
Cc1c(C(=O)N2c3ccc(F)cc3CCC2C)sc2ncn(Cc3ccccc3Cl)c(=O)c12 (configuration not stated) | 100
CC(C)CCCC(C)C1CCC2C3CC=C4CC(OC(=O)C5CCCC5)CCC4(C)C3CCC12C (configuration not stated) | 119
CC(C)(C)C(=O)N1CCCn2nc(-c3ccncc3)cc2C1 | 106
O=C(Cn1cnc2c(sc3ncccc32)c1=O)NCCc1ccc(Cl)cc1 | 98
Cc1ccccc1NC(=O)Cn1cc(-c2nnc(CN3CCCCC3)o2)c2ccccc21 | 105
O=C(NCC1CCN(Cc2ccc(F)cc2)CC1)c1ccc2cccc(O)c2n1 | 105
COc1cccc(-n2c(SCC(=O)N3CCN(c4ccccc4OC)CC3)nc3n[nH]c(C)c3c2=N)c1 | 105
Cc1ccc(-c2nc(Cn3nnc(-c4nc(-c5ccccc5Br)no4)c3C)c(C)o2)cc1 | 106
CCOc1ccc2nc(NC(=O)C3CC=CCC3C(=O)OCC(F)(F)C(F)F)sc2c1 (configuration not stated) | 115
CN1CCN(C(=O)Cc2ccc(F)cc2)c2ccccc21 | 101
COc1ccc(-c2csc(=Nc3cccc(C(F)(F)F)c3)n2CCc2ccccc2)cc1F | 110
COc1cccc(NC(=O)CSc2nc(NCc3ccccc3)c3ccccc3n2)c1 | 113&103

Other records:
smiles | GIV Gai3 FP
O=S(=O)(NCc1nc2cccnc2n1C1CCCCC1)c1ccc2c(c1)CCCC2 | 101
COc1ccccc1OCCNC(=O)Cn1ccc2c(c(C)nn2-c2ccccc2)c1=O | 107
CCOc1ccc(-n2nnc3c(N4CCN(C(=O)CC5CCCC5)CC4)ncnc32)cc1 | 106
CN(C)S(=O)(=O)c1ccc(-c2noc(C(=O)NCc3cccnc3)n2)cc1 | 100
Cc1nc(-c2cc(S(=O)(=O)N3CCc4ccccc4C3)c(C)s2)sc1C | 96
CCOC(=O)C1=C(c2ccccc2)OC(N)=C(C#N)C1c1ccccc1Cl (configuration not stated) | 105
COc1ccc(/C=N/c2oc(-c3ccccc3)c(-c3ccccc3)c2C#N)cc1 | 120
CC1Sc2sc(=S)sc2SC(C)C1=O (configuration not stated) | 111
O=C(CSc1nnc2c3ccccc3nc(-c3ccccc3)n12)N1CCCC1 | 102
O=C(NCc1cccc(Cl)c1)c1ccc(N2CC3CC(C2)c2cccc(=O)n2C3)c(NC(=O)c2ccc(F)cc2)c1 (configuration not stated) | 106
Cc1ccccc1NC(=O)c1cc2c3c(c1)C1C=CCC1CN3CC1CC=CC21 (configuration not stated) | 108
CCOC(=O)C(NC(=O)c1ccccc1F)(Nc1sc2c(c1C#N)CCC(C)C2)C(F)(F)F (configuration not stated) | 111
c1cn(-c2ccc(-c3noc(C4CC4)n3)cn2)cn1 | 98
Cc1ncc(-c2ccc(S(=O)(=O)N3CCOCC3)s2)o1 | 104
COc1ccc(S(=O)(=O)CCC(=O)N2CCCC2c2nc(-c3ccc(C)cc3)no2)cc1 (configuration not stated) | 99
CC(C)Cn1cc2c3c(cccc31)CN(C(=O)NCC1CCCO1)CC2 (configuration not stated) | 99
CCOc1ccc(C2(O)CN(c3ccc(Cl)cc3)C3=[N+]2CCCS3)cc1 (configuration not stated) | 111
CNC(=O)c1cc(=O)n(CC(=O)Nc2sc3c(c2C(=O)OC)CCC3)c2ccccc12 | 97
CCC(C)NC(=O)Cn1c2ccccc2c2ncn(Cc3nc(C4CC4)no3)c(=O)c21 (configuration not stated) | 118
CCSc1nc2ccc(NS(=O)(=O)c3ccc(Cl)cc3)cc2s1 | 103
COc1nccnc1NS(=O)(=O)c1ccc(NC(=O)c2cc3c(ccc4ccccc43)oc2=O)cc1 | 106
CC(=O)Nc1ccc2nc(NC(=O)CSc3nnc(-c4cc5ccccc5o4)n3C)sc2c1 | 107
O=C(NCc1ccccn1)c1nc(-c2ccc(S(=O)(=O)N3CCCC3)cc2)no1 | 105
Cc1cc2c(cc1S(=O)(=O)N1CCC(C)CC1)OCC(=O)N2Cc1noc(C2CC2)n1 | 98
CCN(CC)c1ccc2cc(-c3nc(-c4ccc(Cl)cc4)cs3)c(=Nc3ccccc3)oc2c1 | 141

The last 2 records of the section before lead into the next:
smiles | GIV Gai3 FP
Cc1cc2c(cc1S(=O)(=O)N1CCC(C)CC1)OCC(=O)N2Cc1noc(C2CC2)n1 | 98
CCN(CC)c1ccc2cc(-c3nc(-c4ccc(Cl)cc4)cs3)c(=Nc3ccccc3)oc2c1 | 141
NS(=O)(=O)c1ccc2nc(NC(=O)COc3ccc(Cl)cc3)sc2c1 | 98
Cc1nnc2ccc(-n3ncc4c3NC(=O)CC4c3ccc(OCc4ccc(Cl)cc4)cc3)nn12 (configuration not stated) | 101
CC1(C)Cc2c(c(N3CCOCC3)nc3sc4c(N5CCCCC5)ncnc4c23)CO1 | 107
Cc1ccc(N2C(=O)C(N3C(=O)c4ccccc4C3=O)C2c2ccc(F)cc2)cc1 (configuration not stated) | 104
CCN(CC)CCNC(=O)c1sc2ncnc(N3CCN(c4ccccc4)CC3)c2c1C | 100
